Screening data as filed in PubChem.
KCNQ2 enhance: KCNQ2 (rat) channel potentiation | B-score at 10 µM | AID 2239 | CHO-K1 KCNQ2, FluxOR thallium flux fluorescence; hits give high values | O88943 | 0.54% of 310,000 active;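 active = fluorescence ratio B-score at least 3 SD of library B-scores, with initial fluorescence B-score within 3 SD, cut at about 5.3 in these data; same plate scores as AID 2156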;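 note: B-score of peak minus minimum over baseline fluorescence ratio after K+ and Tl+ stimulus; positive B-score means potentiation of KCNQ2 with more thallium influx and brighter signal; only the inactives scoring about 0 or higher are listed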
Target sequence (O88943 whole entry, looked up): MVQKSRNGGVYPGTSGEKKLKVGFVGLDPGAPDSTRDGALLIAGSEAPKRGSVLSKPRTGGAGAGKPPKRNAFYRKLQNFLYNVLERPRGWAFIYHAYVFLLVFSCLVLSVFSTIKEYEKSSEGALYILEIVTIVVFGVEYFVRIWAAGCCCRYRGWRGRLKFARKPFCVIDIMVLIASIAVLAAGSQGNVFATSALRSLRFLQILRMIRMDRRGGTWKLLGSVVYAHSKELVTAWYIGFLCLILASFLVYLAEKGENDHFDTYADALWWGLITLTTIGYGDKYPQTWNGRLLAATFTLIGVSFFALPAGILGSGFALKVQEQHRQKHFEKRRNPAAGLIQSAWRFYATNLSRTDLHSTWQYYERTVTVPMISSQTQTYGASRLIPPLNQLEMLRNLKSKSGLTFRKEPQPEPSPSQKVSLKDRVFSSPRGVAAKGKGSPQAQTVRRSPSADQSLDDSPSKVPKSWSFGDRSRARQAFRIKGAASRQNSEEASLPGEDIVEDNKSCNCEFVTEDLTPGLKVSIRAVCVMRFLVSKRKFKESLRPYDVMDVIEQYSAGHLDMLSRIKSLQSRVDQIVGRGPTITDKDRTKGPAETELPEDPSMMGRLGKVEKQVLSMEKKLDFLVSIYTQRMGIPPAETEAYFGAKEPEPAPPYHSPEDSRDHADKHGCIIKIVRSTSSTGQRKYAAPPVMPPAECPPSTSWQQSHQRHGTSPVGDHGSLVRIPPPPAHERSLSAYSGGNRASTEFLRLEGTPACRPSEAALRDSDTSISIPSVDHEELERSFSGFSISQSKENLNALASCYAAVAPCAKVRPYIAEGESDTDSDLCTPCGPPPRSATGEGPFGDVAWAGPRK
KCNQ2 enhance baseline: second read-out of KCNQ2 enhance, no call of its own (marks repeat the call); B-score; compound at 10 µM; measured here: initial fluorescence intensity artifact check;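 brightness before thallium and not channel activity; 0 = typical well and far values either way flag optical interference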
* = called active by the depositor. An excerpt; rates above refer to the full screens.

What do the screens show for `Cc1[nH]c2ccccc2c1-c1csc(NC(=O)CN2CCOCC2)n1`?
KCNQ2 enhance: 1.5; KCNQ2 enhance baseline: -1.9

What do the screens show for `Cc1ccccc1Cc1n[nH]c(=S)n1N`?
KCNQ2 enhance: 0.96; KCNQ2 enhance baseline: -1.9

Results for O=C(N/N=C/c1ccc(Cl)cc1)c1nc2ccc([N+](=O)[O-])cc2c(=O)[nH]1 ?
KCNQ2 enhance: 1.1; KCNQ2 enhance baseline: 0.7

Results for Cc1ccc(-n2[nH]c(C)c(/C=N/c3ccccn3)c2=O)cc1 ?
KCNQ2 enhance: 0.01; KCNQ2 enhance baseline: 0.15

Results for N=C1S/C(=C\c2ccccc2F)C(=O)N1c1ccc(F)cc1 ?
KCNQ2 enhance: 1.5; KCNQ2 enhance baseline: 1

Results for CCn1cc(C(=O)O)c(=O)c2cnc(N3CCN(C(=S)Nc4ccccc4Cl)CC3)nc21 ?
KCNQ2 enhance: 0.87; KCNQ2 enhance baseline: -3.5

What do the screens show for `O=c1c2cccc(Cl)c2nc2n1Cc1ccccc1-2`?
KCNQ2 enhance: 1.2; KCNQ2 enhance baseline: -0.37

Results for O=C(CSc1nnc(Cc2cc(=O)[nH]c(=O)[nH]2)n1-c1ccccc1)N1CCCC1 ?
KCNQ2 enhance: 0.53; KCNQ2 enhance baseline: -0.34

What do the screens show for `Cc1ccc(S(=O)(=O)N(C)C)cc1NC(=O)CN1CCCC1`?
KCNQ2 enhance: 0.03; KCNQ2 enhance baseline: 1.7

How did O=C(O)/C=C\c1ccccc1Oc1ccc(F)cc1 do in these assays?
KCNQ2 enhance: 0.93; KCNQ2 enhance baseline: -1.9

What do the screens show for `C1=CC2=NC34CCCCC3CC3=C(CCCC3)N4C2=CC1=NC1CCCCC1` (configuration not stated)?
KCNQ2 enhance: 0.03; KCNQ2 enhance baseline: 0.25

How did O=C(c1ccco1)N1CCN(S(=O)(=O)c2ccc3c(c2)CCN3C(=O)C2CC2)CC1 do in these assays?
KCNQ2 enhance: 0.2; KCNQ2 enhance baseline: -0.09

What do the screens show for `CCOC(=O)CCC(NC(=O)CCCCC(=O)NC(CCC(=O)OCC)C(=O)OCC)C(=O)OCC` (configuration not stated)?
KCNQ2 enhance: 0.34; KCNQ2 enhance baseline: -0.29

What do the screens show for `CN(C)CCNC(=O)C(=O)NCC(c1ccc2c(c1)OCO2)N1CCN(c2ccc(F)cc2)CC1` (configuration not stated)?
KCNQ2 enhance: 0.36; KCNQ2 enhance baseline: 1.4

How did O=Cc1cccc(OC(=O)/C=C/c2ccco2)c1 do in these assays?
KCNQ2 enhance: 1.3; KCNQ2 enhance baseline: -1.4

What do the screens show for `CC1CCCCN1CC(=O)NCc1ccc2c(c1)OCO2` (configuration not stated)?
KCNQ2 enhance: 1.4; KCNQ2 enhance baseline: -1.5

Results for Cc1cccc(C)c1N1CCN(c2ccc3nnc(C(F)(F)F)n3n2)CC1 ?
KCNQ2 enhance: 0.86; KCNQ2 enhance baseline: 0

How did CN1CCC(N(C)C(=S)Nc2ccc(F)cc2)CC1 do in these assays?
KCNQ2 enhance: 0.88; KCNQ2 enhance baseline: 0.31

How did Cc1ccc(NC(=O)C2C3/C=C\CCCCC32)cc1C (configuration not stated) do in these assays?
KCNQ2 enhance: 1.2; KCNQ2 enhance baseline: 0.22

What do the screens show for `COc1ccc(N2C(=O)CC(C#N)=C2N)cc1`?
KCNQ2 enhance: 0.12; KCNQ2 enhance baseline: -0.4

3 entries out of the list, arranged by count of non-hydrogen atoms, rising:
How did O=Cc1cccc(OC(=O)/C=C/c2ccco2)c1 do in these assays?
KCNQ2 enhance: 1.3; KCNQ2 enhance baseline: -1.4

How did Cc1ccc(NC(=O)C2C3/C=C\CCCCC32)cc1C (configuration not stated) do in these assays?
KCNQ2 enhance: 1.2; KCNQ2 enhance baseline: 0.22

What do the screens show for `CC1CCCCN1CC(=O)NCc1ccc2c(c1)OCO2` (configuration not stated)?
KCNQ2 enhance: 1.4; KCNQ2 enhance baseline: -1.5

Additional results follow.
Results for O=C(COc1ccc([N+](=O)[O-])cc1Cl)NCC1CCCO1 (configuration not stated) ?
KCNQ2 enhance: 0.64; KCNQ2 enhance baseline: 0.36

Results for CCN(CC(=O)NCc1ccc(Cl)cc1)Cc1cc(=O)n2ccsc2n1 ?
KCNQ2 enhance: 0.94; KCNQ2 enhance baseline: -0.4

What do the screens show for `CCc1nnc(NC(=O)CCC(=O)N2CCN(c3cc(C)ccc3C)CC2)s1`?
KCNQ2 enhance: 0.56; KCNQ2 enhance baseline: -4.9

What do the screens show for `COc1ccc(C2CC(c3ccc(OC)cc3)n3nc(NC(=O)c4ccco4)nc3N2)cc1` (configuration not stated)?
KCNQ2 enhance: 1.2; KCNQ2 enhance baseline: 0.64

How did O=C(O)c1cccc(C(=O)c2cccc3ccccc23)c1 do in these assays?
KCNQ2 enhance: 0.38; KCNQ2 enhance baseline: -0.32

What do the screens show for `C=COCCNC(=O)Nc1ccc(Cl)cc1Cl`?
KCNQ2 enhance: 0.47; KCNQ2 enhance baseline: 0.41

What do the screens show for `CCOc1ccc(OCCOCCN2CCc3ccccc3C2)cc1`?
KCNQ2 enhance: 1.2; KCNQ2 enhance baseline: -2

How did CCc1ccc(NC(=O)CCC(=O)c2ccc(C)cc2)cc1 do in these assays?
KCNQ2 enhance: 1.4; KCNQ2 enhance baseline: -2.2

Results for CC(=O)c1cccc(OCC(=O)Nc2cc(S(=O)(=O)N3CCOCC3)ccc2N2CCCC2)c1 ?
KCNQ2 enhance: 1.9; KCNQ2 enhance baseline: -0.37

Results for Cn1c(=O)n(CC#N)c2ccccc21 ?
KCNQ2 enhance: 0.55; KCNQ2 enhance baseline: 0.87

What do the screens show for `Cc1cc(C(=O)Nc2nc(C)c(C(=O)N(C)C)s2)ccc1[N+](=O)[O-]`?
KCNQ2 enhance: 0.85; KCNQ2 enhance baseline: 0.18

Results for COC(=O)C(CC(C)C)NC(=O)c1ccc([N+](=O)[O-])cc1 (configuration not stated) ?
KCNQ2 enhance: 1.2; KCNQ2 enhance baseline: -1.8

Results for O=C(O)c1ccc(S(=O)(=O)Nc2ccc(O)c(Sc3nc4ccccc4s3)c2)cc1 ?
KCNQ2 enhance: 0.85; KCNQ2 enhance baseline: 0.06

Results for N#Cc1c(F)cccc1N1CCC(C#N)CC1 ?
KCNQ2 enhance: 0.74; KCNQ2 enhance baseline: 1.9

What do the screens show for `NS(=O)(=O)c1ccc(CCNC(=O)c2cccc([N+](=O)[O-])c2)cc1`?
KCNQ2 enhance: 0.75; KCNQ2 enhance baseline: -0.03

How did CCOc1ccc(NC(=O)Cn2nnc(-c3ccccc3NC(=O)C3CC3)n2)cc1 do in these assays?
KCNQ2 enhance: 0.72; KCNQ2 enhance baseline: -0.47

How did Cc1c(Cl)cccc1NC(=O)Nc1cc(C(C)(C)C)nn1C do in these assays?
KCNQ2 enhance: 0.17; KCNQ2 enhance baseline: -0.4

What do the screens show for `COc1ccccc1-c1nc(S(=O)(=O)c2ccccc2)c(N2CCOCC2)o1`?
KCNQ2 enhance: 0.16; KCNQ2 enhance baseline: -2

Results for COc1ccc(C(=O)Nc2cc(=O)[nH]c3ncnn23)cc1 ?
KCNQ2 enhance: 0.49; KCNQ2 enhance baseline: -1.9

What do the screens show for `Cc1ccc(C)c(N(C(=O)CS(=O)CC(=O)Nc2ccc3c(c2)OCO3)C(C)C(=O)NC2CCCC2)c1` (configuration not stated)?
KCNQ2 enhance: 0.4; KCNQ2 enhance baseline: -0.54

How did COc1ccc(OC)c(-c2cc(C(=O)Nc3c(C)nn(Cc4ccccc4C)c3C)no2)c1 do in these assays?
KCNQ2 enhance: 0.15; KCNQ2 enhance baseline: 0.4

Results for CCC(=O)NCC(c1ccco1)N1CCN(c2ccc(OC)cc2)CC1 (configuration not stated) ?
KCNQ2 enhance: 0.78; KCNQ2 enhance baseline: -0.67

Results for CS(=O)(=O)N(Cc1ccc(C(=O)NC2CCCC2)cc1)c1ccccc1 ?
KCNQ2 enhance: 0.39; KCNQ2 enhance baseline: -2.3

Results for COc1ccc(N2C(=O)CNC2=S)cc1 ?
KCNQ2 enhance: 1.7; KCNQ2 enhance baseline: -2

Results for Cc1cc(NS(=O)(=O)c2ccc(NC(=S)NC(=O)c3ccc(F)cc3)cc2)no1 ?
KCNQ2 enhance: 1.2; KCNQ2 enhance baseline: -0.94

Results for O=P(O)(O)CCP(=O)(c1ccccc1)c1ccccc1 ?
KCNQ2 enhance: 0.49; KCNQ2 enhance baseline: 0.61

Results for O=C(O)c1ccccc1C(=O)NCCc1ccc(Cl)cc1 ?
KCNQ2 enhance: 0.34; KCNQ2 enhance baseline: -0.35

What do the screens show for `COc1ccc(/C(C)=N/N=C(\C)c2ccc(OC)cc2OC)c(OC)c1`?
KCNQ2 enhance: 0.04; KCNQ2 enhance baseline: 0.02

What do the screens show for `O=C(Nc1ccnn1C1CCN(Cc2ccccc2OC(F)F)CC1)c1cccc(F)c1`?
KCNQ2 enhance: 0.06; KCNQ2 enhance baseline: -0.66

Results for CC(OC(=O)c1cccnc1Cl)C(=O)Nc1ccc2c(c1)OCCO2 (configuration not stated) ?
KCNQ2 enhance: 2.9; KCNQ2 enhance baseline: -1.8

What do the screens show for `COCCCNCCCCOc1cccc(Br)c1`?
KCNQ2 enhance: 0.84; KCNQ2 enhance baseline: 1.5

How did Cc1ccccc1NC(=O)C1CCCN(S(=O)(=O)c2cnc[nH]2)C1 (configuration not stated) do in these assays?
KCNQ2 enhance: 1.2; KCNQ2 enhance baseline: -0.8

How did COc1ccc(C(=O)O/N=C(\N)Cc2ccc(Cl)cc2)cc1OC do in these assays?
KCNQ2 enhance: 0.01; KCNQ2 enhance baseline: -0.56

How did Cc1cccc(N2C(=O)CC(Sc3nc(C)cc(C)n3)C2=O)c1 (configuration not stated) do in these assays?
KCNQ2 enhance: 1.7; KCNQ2 enhance baseline: -0.8

What do the screens show for `COCCNC(=O)CSCc1nc(-c2ccc(SC)cc2)oc1C`?
KCNQ2 enhance: 0.66; KCNQ2 enhance baseline: 0.89

How did CCNc1c(C(=O)O)ccc2c1C(=O)c1ccccc1C2=O do in these assays?
KCNQ2 enhance: 0.86; KCNQ2 enhance baseline: -0.39

Results for C/C(N)=C(/C#N)C(=O)CSc1cc(Cl)ccc1Cl ?
KCNQ2 enhance: 0.67; KCNQ2 enhance baseline: -0.57

How did CCCCn1c(N)c(N(CC)C(=O)c2ccccc2C(F)(F)F)c(=O)[nH]c1=O do in these assays?
KCNQ2 enhance: 2.7; KCNQ2 enhance baseline: 0.14

How did CN(C(=O)CN(c1ccccc1)S(=O)(=O)c1ccc(F)cc1)C1CCS(=O)(=O)C1 (configuration not stated) do in these assays?
KCNQ2 enhance: 1.6; KCNQ2 enhance baseline: -0.92

Results for CC(C)(C)[C@H]1C=C(C(N)=O)O[C@@H](OCCCCO)C1 ?
KCNQ2 enhance: 1.7; KCNQ2 enhance baseline: 0.09

5 compounds drawn at random from those above:
What do the screens show for `COCCCNCCCCOc1cccc(Br)c1`?
KCNQ2 enhance: 0.84; KCNQ2 enhance baseline: 1.5

How did CCCCn1c(N)c(N(CC)C(=O)c2ccccc2C(F)(F)F)c(=O)[nH]c1=O do in these assays?
KCNQ2 enhance: 2.7; KCNQ2 enhance baseline: 0.14

How did CN(C(=O)CN(c1ccccc1)S(=O)(=O)c1ccc(F)cc1)C1CCS(=O)(=O)C1 (configuration not stated) do in these assays?
KCNQ2 enhance: 1.6; KCNQ2 enhance baseline: -0.92

How did CCNc1c(C(=O)O)ccc2c1C(=O)c1ccccc1C2=O do in these assays?
KCNQ2 enhance: 0.86; KCNQ2 enhance baseline: -0.39

How did COc1ccc(C(=O)O/N=C(\N)Cc2ccc(Cl)cc2)cc1OC do in these assays?
KCNQ2 enhance: 0.01; KCNQ2 enhance baseline: -0.56

Carrying on:
Results for O=C1CC(c2ccc(Cl)cc2)CC(O)=C1C=NCCO (configuration not stated) ?
KCNQ2 enhance: 0.04; KCNQ2 enhance baseline: 0.51

What do the screens show for `COc1ccc(NC(=O)/C=C/c2c(Cl)nc3ccccn23)cc1`?
KCNQ2 enhance: 0.13; KCNQ2 enhance baseline: 2.7

How did COc1ccc(CCC(=O)N/N=C/c2ccc3c(c2)OCO3)cc1 do in these assays?
KCNQ2 enhance: 0.02; KCNQ2 enhance baseline: 1

How did COc1ccc(CNC(=O)c2c(C)oc3c2C(=O)c2ccccc2C3=O)cc1 do in these assays?
KCNQ2 enhance: 1.6; KCNQ2 enhance baseline: -0.88

How did COc1ccc(C(=O)Nc2ccc3nc(N4CCCCC4)cc(C)c3c2)cc1OC do in these assays?
KCNQ2 enhance: 0.63; KCNQ2 enhance baseline: -0.17

How did Cc1ccccc1CCNC(=O)CCn1nc(C)c2c(C)n(-c3ccccc3)nc2c1=O do in these assays?
KCNQ2 enhance: 1.7; KCNQ2 enhance baseline: -0.86

Results for CCN(CC)CCCNC(=O)c1ccccc1NC(=O)C1=CSCCO1 ?
KCNQ2 enhance: 0.81; KCNQ2 enhance baseline: -0.22

Results for CC(=O)c1cc(-c2ccccc2)n(CC(=O)N2CCC(N3CCCCC3)CC2)c1C ?
KCNQ2 enhance: 0.72; KCNQ2 enhance baseline: -2.4

How did CC(NC(=O)c1cc2c(=O)n3ccccc3nc2n(CC2CCCO2)c1=N)c1ccccc1 (configuration not stated) do in these assays?
KCNQ2 enhance: 0.02; KCNQ2 enhance baseline: -1

Results for CC(=O)c1ccc(NC(=O)c2ccc(NC(=O)CCS(=O)(=O)c3cccs3)cc2)cc1 ?
KCNQ2 enhance: 0.6; KCNQ2 enhance baseline: -0.75

What do the screens show for `CNc1nc(OC)nc(N2CCOCC2)n1`?
KCNQ2 enhance: 0.47; KCNQ2 enhance baseline: 0.44

Results for O=C(CS(=O)(=O)c1ccc(C(F)(F)F)cn1)NNC(=O)c1ccccc1 ?
KCNQ2 enhance: 0.1; KCNQ2 enhance baseline: -1.6
